# Assay outcomes deposited in PubChem by National Center for Advancing Translational Sciences (NCATS).
# GLA inh pH 4.5: qHTS Assay for Inhibitors of Human alpha-Galactosidase at pH 4.5. Alpha-galactosidase A (Homo sapiens), P06280. purified enzyme, 4-MU-alpha-Gal fluorescence, pH 4.5. activity change, negative = inhibition, % at 105 µM. 230,000 tested, under 10 active. AID 1467, 2008; inconclusive = small, poorly fitted or top-dose-only inhibition, or a rising curve; inactive = flat fitted curve, though single readings scatter; no compound was filed as active;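 note: 0% = full activity with enzyme and -100% = basal without enzyme; dose as in the result columns while the protocol names 77 µM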
# Target sequence (P06280 whole entry, looked up): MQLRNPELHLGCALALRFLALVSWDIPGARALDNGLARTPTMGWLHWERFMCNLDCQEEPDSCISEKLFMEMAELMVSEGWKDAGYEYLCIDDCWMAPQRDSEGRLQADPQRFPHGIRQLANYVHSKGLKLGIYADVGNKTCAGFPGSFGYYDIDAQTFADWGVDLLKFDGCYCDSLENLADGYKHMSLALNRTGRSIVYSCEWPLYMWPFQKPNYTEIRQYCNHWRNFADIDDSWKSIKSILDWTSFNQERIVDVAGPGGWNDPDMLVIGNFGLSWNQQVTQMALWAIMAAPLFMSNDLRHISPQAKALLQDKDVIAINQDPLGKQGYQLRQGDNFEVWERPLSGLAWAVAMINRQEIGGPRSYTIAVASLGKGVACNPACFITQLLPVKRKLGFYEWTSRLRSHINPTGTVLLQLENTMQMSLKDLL
# miR-21 reporter: qHTS Assay for Modulators of miRNAs and/orActivators of miR-21 | AID 2288, 2010 | 340,000 tested, under 10 active | Potency, µM (doses to about 38.3 µM), inactives show top-dose reporter change, positive = more light | HeLa miR-21 FLuc reporter, luciferase, 48 h; active = well fitted rising curve with a large enough effect; inconclusive = small, poorly fitted or top-dose-only effect; inactive = no such curve, though single readings can be large or run the other way;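 note: % of control where 0% means no effect; miR-21 action dims this reporter so a rising signal means less miR-21 action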
#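 HeLa cells stably expressing CMV-driven firefly luciferase with a downstream miR-21 binding sequence, endogenously expressing miR-21, were treated with titrations (up to about 40uM final) for 48 hours at 37 degree Celsius. Luciferase luminescence was read after lysis.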
# Rango complex inh: qHTS Assay for Inhibitors of Rango (Ran-regulated importin-beta cargo) - Importin beta complex formation. Importin subunit beta-1 (Homo sapiens), Q14974. Rango CFP/YFP FRET sensor + importin beta, 45 min. Potency, µM (top dose mostly 92.2 µM), for inactives: at the top dose inhibition of complex formation. hit rate 0.031% among 340,000. AID 540263, 2011; active = rising FRET ratio curve, often small or poorly fitted; inconclusive = mostly compound fluorescence or quenching in the first reads; inactive = flat curves in all reads;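 note: potency is the fitted concentration of half-maximal effect; 0% = DMSO wells and 100% = buffer wells lacking importin beta; nearly all actives have a fitted effect of over 15% in size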
#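 Inhibition scored from the CFP 486 nm/YFP 530 nm FRET ratio 45 min after adding 0.125 microM importin beta to 50 nM Rango biosensor preincubated 5 min with compound (room temperature, PBS with DTT, Tween-20, BSA). No-importin wells as positive control.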
# Rango dissoc inh: qHTS Assay for Inhibitors of RanGTP induced Rango (Ran-regulated importin-beta cargo) - Importin beta complex dissociation. AID 540253, 2011. hit rate 0.071% among 340,000. Potency, µM (highest dose often 46.1 µM), inactives show at the top dose activity change, negative = inhibition. Biochemical FRET Rango-importin beta, RanGTP-induced dissociation. Snurportin-1 (Homo sapiens) + GTP-binding nuclear protein Ran (Homo sapiens) + Importin …; active means falling FRET ratio curve, often poorly fitted, with flat reads before Ran was added; inconclusive means other falling curves, or compound fluorescence or quenching; inactive means flat or rising ratio curve;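 note: potency is the fitted concentration of half-maximal effect; % of control where 0% means no effect; nearly all actives have a fitted effect of over 45% in size; -100% = wells without RanGTP and RCC1; the record marks most hits as doubtful in a second field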
#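 FRET read at 45 min, room temperature: inhibitors block the CFP/YFP signal rise when RanGTP (0.6 uM Ran, 2 mM GTP, 0.2 uM RCC1) frees Rango (0.1 uM) from importin beta (0.25 uM). Pre-read after 5 min compound exposure flags interference.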
# * hit, by the source's call; ? = inconclusive; / = no result given; & = joins results of further samples. Some of the compounds tested. The share of hits here may be higher or lower than overall.
1: Cc1ccc(C(=O)NC(NCc2ccco2)C(Cl)(Cl)Cl)cc1 (stereo not given)
2: Cc1cc(C2=CC(C)(c3cc(C)oc3C)Nc3nc(C(F)(F)F)nn32)c(C)o1 (stereo not given)
3: O=C(COC(=O)Cc1c(Cl)cccc1Cl)NCc1ccco1
4: COC(=O)c1cccc(NC(=O)CN2C(=O)C3CCCCC3C2=O)c1 (stereo not given)
5: NC(=O)c1ccccc1N=Cc1cccnc1
Assay by compound,1,2,3,4,5
Rango dissoc inh,2%,/,1%,-17%,-4%
GLA inh pH 4.5,-2,-8,/,/,/
Rango complex inh,4.0%,/,0.0%,2.1%,2.2%
miR-21 reporter,-3%,?,/,/,/

6: Cn1c(=O)c2sc3c(c2n(CC(=O)Nc2ccccc2)c1=O)COC(C)(C)C3
7: O=C(NC1=NCCS1)c1cc(-c2cccnc2)nc2ccccc12
8: COc1ccc(C(=O)Nc2ccc(S(=O)(=O)NC(C)=O)cc2)cc1[N+](=O)[O-]
9: COc1cc(C2c3c(oc4ccc(C)cc4c3=O)C(=O)N2c2cc(C)ccn2)cc(OC)c1OC (stereo not given)
10: CC(=O)c1ccc(N2CCN(C(=O)c3cc4c(s3)CCCC4)CC2)cc1
Assay by compound,6,7,8,9,10
Rango dissoc inh,1%,?,1%,/,-7%
GLA inh pH 4.5,/,-14,2,-5,-10
Rango complex inh,3.3%,-3.7%,-0.4%,/,-5.7%
miR-21 reporter,-9%,9%,-10%,-2%,-38%

11: O=C(N/N=C/c1cccc([N+](=O)[O-])c1)C1CC(=O)N(c2ccc(Cl)cc2)C1 (stereo not given)
12: CCCN(CC1CC1)C(=O)Nc1ccccc1C
13: CCCOC(=O)/C(C(N)=NCc1ccccc1)=C(\O)OCCC
14: CC(NC(=O)C12CC3CC(CC(C3)C1)C2)C(=O)NN=Cc1ccc([N+](=O)[O-])o1 (stereo not given)
15: Cc1nn(C(C)C(=O)Nc2ccc3c(c2)OCO3)c(C)c1[N+](=O)[O-] (stereo not given)
Assay by compound,11,12,13,14,15
Rango dissoc inh,1%,1%,-11%,1%,0%
GLA inh pH 4.5,-3,-12,-9,/,3
Rango complex inh,-0.9%,4.8%,-5.1%,1.9%,-1.2%
miR-21 reporter,-15%,0%,5%,/,-11%

16: COCCNCC(=O)Nc1ccc(OC(F)(F)F)cc1
17: CCn1c(=O)cc(OCC(=O)NC(C)c2ccc3c(c2)OCCO3)c2ccccc21 (stereo not given)
18: Cc1cc(C)n(CCC(=O)N2CCCC(Nc3ccc(F)cc3)C2)n1 (stereo not given)
19: CC1=C(C(=O)OCC2CCCCC2)C(c2ccc(O)cc2)NC(=O)N1 (stereo not given)
20: COC(=O)COc1cccc(NS(=O)(=O)c2ccc(NC(C)=O)cc2)c1
Assay by compound,16,17,18,19,20
Rango dissoc inh,-5%,2%,30%,5%,-5%
GLA inh pH 4.5,-1,-17,/,/,-4
Rango complex inh,1.9%,-1.2%,0.1%,-3.7%,-2.5%
miR-21 reporter,-8%,-21%,/,-13%,-5%

21: O=C(NCCN1CCOCC1)C12CC3CC(C1)CC(c1ccccc1)(C3)C2
22: CC12CCC(C(N)=O)(c3nc4ccccc4nc31)C2(C)C (stereo not given)
23: Cc1ccc(N(C(=O)Cn2nnc(-c3ccc(C)o3)n2)C(C(=O)NC2CCCC2)c2ccncc2)cc1 (stereo not given)
24: O=C(O)CCCNS(=O)(=O)c1cccc2nsnc12
25: O=C(CCc1ccccc1)NC(NC(=S)Nc1ccc(Br)cc1)C(Cl)(Cl)Cl (stereo not given)
Assay by compound,21,22,23,24,25
Rango dissoc inh,-7%,-7%,-9%,-8%,-5%
GLA inh pH 4.5,-1,3,/,9,-1
Rango complex inh,4.6%,-0.8%,-2.9%,-0.2%,2.6%
miR-21 reporter,-4%,-6%,-5%,-3%,23%

# Five compounds already listed, ordered by length of the SMILES, rising.
18: Cc1cc(C)n(CCC(=O)N2CCCC(Nc3ccc(F)cc3)C2)n1 (stereo not given)
10: CC(=O)c1ccc(N2CCN(C(=O)c3cc4c(s3)CCCC4)CC2)cc1
25: O=C(CCc1ccccc1)NC(NC(=S)Nc1ccc(Br)cc1)C(Cl)(Cl)Cl (stereo not given)
17: CCn1c(=O)cc(OCC(=O)NC(C)c2ccc3c(c2)OCCO3)c2ccccc21 (stereo not given)
2: Cc1cc(C2=CC(C)(c3cc(C)oc3C)Nc3nc(C(F)(F)F)nn32)c(C)o1 (stereo not given)
Assay by compound,18,10,25,17,2
Rango dissoc inh,30%,-7%,-5%,2%,/
GLA inh pH 4.5,/,-10,-1,-17,-8
Rango complex inh,0.1%,-5.7%,2.6%,-1.2%,/
miR-21 reporter,/,-38%,23%,-21%,?

# Carrying on.
26: CCOC(=O)C1CCN(C(=O)CNC(=O)OC(C)(C)C)CC1
27: COc1ccc(NC(=O)Nc2ccccc2F)cc1Cl
28: CN1CCN(C(=O)c2ccc3c(Cl)c4c(nc3c2)CCCC4)CC1
29: Cc1ccc(S(=O)(=O)NCC(=O)NCC(=O)N2CCC(C)CC2)cc1
30: O=[N+]([O-])c1cc([N+](=O)[O-])c(Oc2ccc(Br)cc2Br)cc1NN1CCCCC1
Assay by compound,26,27,28,29,30
Rango dissoc inh,-13%,-3%,13%,12%,7%
GLA inh pH 4.5,2,-3,/,/,/
Rango complex inh,-2.8%,-1.2%,6.5%,-1.8%,1.8%
miR-21 reporter,-3%,-90%,-7%,2%,1%

31: Cc1ccc(C(=O)OCC(=O)N2CCNC2=O)c(C)c1
32: Cc1csc(NC(=O)CSc2sc3c(O)cc(=O)[nH]c3c2C#N)n1
33: Cc1ccc(-n2c(C)cc(C(=O)CN3CCCCC3)c2C)cc1
34: Cc1cccc(C)c1OCCSc1nc2ccccc2n1CC(=O)O
35: CCC(C)c1ccc(Nc2ncccc2C#N)cc1 (stereo not given)
Assay by compound,31,32,33,34,35
Rango dissoc inh,2%,-10%,2%,6%,17%
GLA inh pH 4.5,/,/,4,/,0
Rango complex inh,14%,-0.7%,-1.0%,1.1%,3.6%
miR-21 reporter,/,5%,0%,-6%&-12%,-38%

# As entered above.
# Result for compound 20 under GLA inh pH 4.5: -4
# Result for compound 19 under miR-21 reporter: -13%
# Result for compound 4 under Rango complex inh: 2.1%
# Result for compound 34 under miR-21 reporter: -6%&-12%

# The list continues:
36: C/C(=N\Nc1nnc(-c2ccccc2)c(-c2ccccc2)n1)c1cccc([N+](=O)[O-])c1
37: O=C(NCC(=O)N1CCCC1)c1ccccc1F
38: NC(=S)N/N=C1\CC(c2ccc3c(c2)OCCO3)Oc2ccc(F)cc21 (stereo not given)
39: COC(=O)CSc1ncc(OC)c(OC)n1
40: CN(C)c1cc[n+](CC(=O)c2cccs2)cc1
Assay by compound,36,37,38,39,40
Rango dissoc inh,-13%,0%,-1%,-5%,0%
GLA inh pH 4.5,/,/,-1,3,/
Rango complex inh,-0.3%,-1.3%,3.1%,-3.8%,-0.4%
miR-21 reporter,-6%,-40%,7%,-2%,3%

# 4 entries out of the list above, arranged by the number in Rango complex inh, falling:
36: C/C(=N\Nc1nnc(-c2ccccc2)c(-c2ccccc2)n1)c1cccc([N+](=O)[O-])c1
40: CN(C)c1cc[n+](CC(=O)c2cccs2)cc1
37: O=C(NCC(=O)N1CCCC1)c1ccccc1F
39: COC(=O)CSc1ncc(OC)c(OC)n1
Assay by compound,36,40,37,39
Rango dissoc inh,-13%,0%,0%,-5%
GLA inh pH 4.5,/,/,/,3
Rango complex inh,-0.3%,-0.4%,-1.3%,-3.8%
miR-21 reporter,-6%,3%,-40%,-2%

# Carrying on:
41: Cc1ccccc1NC(=O)COC(=O)CCC(=O)c1cccs1
42: Cc1cc(C)nc(N2N=C(CSc3ccc(Cl)cc3)CC2=O)n1
43: CN1C(=O)C2(OCCCO2)c2cc(Cl)ccc21
44: Cc1ccc(NC(=O)COC(=O)Cn2nc(C)c([N+](=O)[O-])c2C)c([N+](=O)[O-])c1
45: Cc1ccc(-c2nn(-c3ccccc3)cc2/C=C/C(=O)Nc2nccs2)cc1
Assay by compound,41,42,43,44,45
Rango dissoc inh,14%,0%,16%,-15%,-9%
GLA inh pH 4.5,/,10,/,0,?
Rango complex inh,5.1%,0.2%,1.0%,-2.8%,-1.7%
miR-21 reporter,/,-2%,-1%,-2%,-2%

46: CCN(CC)S(=O)(=O)c1ccc(OC)c(NC(=O)C(C)Oc2ccc3c(C)cc(=O)oc3c2)c1 (stereo not given)
47: CCN(CC)S(=O)(=O)c1ccc(N2CCN(S(=O)(=O)c3ccccc3)CC2)nc1
48: O=C(Cn1cc2c(n1)CCCC2)Nc1ccccc1Br
49: Cc1nonc1OC(C)CNCCNc1ccc([N+](=O)[O-])cc1 (stereo not given)
50: Cn1cnc([N+](=O)[O-])c1NCc1ccccc1
Assay by compound,46,47,48,49,50
Rango dissoc inh,2%,?,-4%,-3%,-2%
GLA inh pH 4.5,-2,/,-3,-12,-11
Rango complex inh,?,1.4%,-0.6%,-3.9%,6.5%
miR-21 reporter,-3%,-1%,-11%,-6%,4%
